# VDR inhibitor: vitamin D3 receptor (human) inhibition; Potency, µM, without a hit: max response, negative = inhibition, usual class: inhibitors; actives 0.93% (n = 400,000); VDR-SRC2-3 peptide fluorescence polarization, 2 h; P11473; active means well fitted inhibition curve with a large enough effect; inconclusive means small, poorly fitted or top-dose-only effect, or another doubt; inactive means no such curve, though single readings can be large or run the other way; further: series mostly up to about 120 µM
# Target sequence (P11473 whole entry, looked up): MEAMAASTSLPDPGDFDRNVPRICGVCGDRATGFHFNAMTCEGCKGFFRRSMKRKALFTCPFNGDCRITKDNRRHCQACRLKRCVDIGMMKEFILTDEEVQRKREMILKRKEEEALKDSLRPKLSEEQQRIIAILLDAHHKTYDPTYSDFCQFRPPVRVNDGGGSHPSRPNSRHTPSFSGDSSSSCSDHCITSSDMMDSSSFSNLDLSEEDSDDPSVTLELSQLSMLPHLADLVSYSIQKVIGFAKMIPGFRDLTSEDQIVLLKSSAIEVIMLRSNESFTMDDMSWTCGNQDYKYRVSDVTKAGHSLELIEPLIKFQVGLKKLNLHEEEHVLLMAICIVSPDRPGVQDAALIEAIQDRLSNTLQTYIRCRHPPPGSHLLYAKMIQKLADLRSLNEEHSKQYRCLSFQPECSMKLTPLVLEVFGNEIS
#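 Inhibition of the VDR/SRC2-3 peptide interaction is quantified by fluorescence polarization. Compounds (23 nl, pintool) incubate with the reagents for 2 hours at ambient room temperature.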
# * marks the source's active call; other numbers are inactive results; ? = inconclusive; & = joins results of further samples; [ ] = another dose, or the depositor's remark. On the % scale 0 is the no-effect control and ±100 the full control effect; potency means the concentration at half of the fitted maximal effect. The list is partial (hit frequency here may not be typical).
VDR inhibitor	mol
14.0%	Cc1ccc(S(=O)(=O)Cn2nnnc2C(CC(C)C)N2CCC(C(N)=O)CC2)cc1 (stereo not given)
2.3%	Cc1c(C(=O)Nc2ccc(-c3nnc4n3CCCCC4)cc2)oc2c1ccc1ccccc12
6.7%	COc1cc2c(cc1OC)[C@@H](NC(=O)C(C)C)[C@H](OCc1ccccc1)C2
-3.8%	CC(C)c1ccc(N(C(=O)c2ccco2)C(C(=O)NC2CCCC2)c2cccnc2)cc1 (stereo not given)
-8.4%	CC(C)(C)NC(=O)COc1coc(CN2CCN(C(=O)c3ccco3)CC2)cc1=O
0.9%	Cc1ccc(S(=O)(=O)N2CCOC2CNC(=O)C(=O)NCCc2ccc(S(N)(=O)=O)cc2)cc1 (stereo not given)
79.4µM*	Cc1ccc(C(C[N+](=O)[O-])n2nc(C)cc2C)cc1 (stereo not given)
-20.3%	CCn1c(-c2cccnc2Cl)nc2cc(C)c(C)cc21
-11.2%	Cc1ccc(S(=O)(=O)N2CCC(C(=O)N3CCCC3C(=O)N[C@@H](CC(C)C)C(=O)NCC(N)=O)CC2)cc1 (stereo not given in full)
-0.6%	CCC(=O)Nc1ccc2nc(SCCOc3cccc(C)c3)sc2c1
-10.4%	O=C(CSc1ncccn1)N1CCN(C(c2ccccc2)c2ccccc2)CC1
-9.0%	COCCN(C(=O)Nc1ccc(F)cc1F)c1nc2ccccc2s1
3.4%	O=C(Cc1ccccc1)n1nc(-c2ccccc2)nc1NCc1ccco1
-14.6%	COc1ccc(C(=O)NCCCn2nc(C)cc2C)cc1S(=O)(=O)N1CCOCC1
12.1%	COc1ccccc1Cn1c(CO)nc2ccccc21
-6.1%	NC1=NC[C@H](Cc2ccc(O)cc2)N1CCc1cccc(F)c1
-3.1%&9.7%	CCS(=O)(=O)NCC(c1ccco1)N1CCN(c2ccc(F)cc2)CC1 (stereo not given)
-6.2%	O=C(Oc1ccc(/C=N/NC(=O)c2ccccc2F)cc1)c1ccccc1
6.4%	c1ccc(-c2sc3ccccc3c2-c2ccc(OCCN3CCOCC3)cc2)cc1
?	CCCN(C(=O)COC(=O)c1nc2nccc(C)n2n1)C1CCS(=O)(=O)C1 (stereo not given)
11.4%	Cc1ccc(OCCN(C)C(=O)C2CCC(=O)N(Cc3ccccc3F)C2)cc1 (stereo not given)
-8.8%	Cc1[nH]n(-c2ccccc2)c(=O)c1/C=N/NC(=O)c1ccc(O)cc1O
-10.3%	ClC(=C\c1ccccc1)/C=N/N1CCN(c2ccccn2)CC1
-13.9%	COc1ccc(OCC(=O)N/N=C/c2ccsc2)cc1
-8.1%	COC(=O)c1ccc(NC(=S)NC(=O)c2cccnc2)cc1
-1.9%	O=C(c1cc(-c2ccco2)on1)N1CCN(C(c2ccccc2)c2ccccc2)CC1
-7.2%	CCOc1ccc(C(=O)N2CCN=C2SC)cc1OCC
11.3%	O=C(Nc1ccccc1Cc1ccccc1)c1oc2ccccc2c1COc1ccccc1
10.3%	Nc1cc(C2CCCC2)nn1-c1ccccc1
0.2%	Cc1c(Cl)cccc1N=Cc1ccc([N+](=O)[O-])s1
-6.9%	Cc1ccc(Cl)cc1N(C)C(=O)c1cc2c(Cl)nc3ccccc3c2s1
-7.3%	COc1cccc(C2c3c(oc4ccccc4c3=O)C(=O)N2CCCN2CCOCC2)c1 (stereo not given)
5.7%	COC(=O)c1nnn(-c2nonc2N)c1CN1CCc2ccccc21
3.7%	O=C(CCc1ccc(S(=O)(=O)N2CCOCC2)cc1)N1CCN(Cc2ccc3c(c2)OCO3)CC1
-3.9%	O=C(Nc1ccc(NC(=O)c2ccc3c(c2)OCO3)cc1)c1cccc(Cl)c1
-5.9%	CCN(CC)c1nc(Nc2ccccc2)nc(Oc2ccc(=O)[nH]n2)n1
22.2%	Cc1cccc(-c2noc(-c3ccc(N4CCOCC4)c([N+](=O)[O-])c3)n2)c1
113.0%[activator]	CCn1c(SCC(=O)Nc2ccc(N3CCOCC3)cc2)nnc1C1CC1
-5.2%	CCn1c(CSc2nc3ccccc3s2)nc2ccccc21
19.1%	COCCN1C(=O)c2[nH]nc(-c3ccccc3O)c2C1c1ccc(OC)cc1 (stereo not given)
-9.9%	CCC1(C(=O)OC)CCc2c(cc(OC)c3ccccc23)C1=O (stereo not given)
-25.2%	C[C@@H](CN1C(=O)C(=O)NC[C@@H]1Cc1ccc(O)cc1)NC(=O)Cc1ccccc1
0.9%	CC1(C)SC2c3ccccc3C(=O)N2[C@@H]1C(=O)O (stereo not given in full)
-16.0%&9.3%	COc1cc(NC(=O)c2cc(S(=O)(=O)N3CCc4ccccc43)cn2C)cc(OC)c1OC
-18.6%	O=C(COC(=O)CNC(=O)c1ccccc1F)Nc1ccc2c(c1)OCCO2
-22.2%	COc1ccc(N2CCC(CNC(=O)Nc3ccc(Cl)cc3)C2)cc1 (stereo not given)
18.4%	CC(C)(C)OC(=O)C[C@@H]1C/C=C\C[C@@H](CC(=O)N[C@@H](CO)Cc2ccccc2)C(=O)N2CCC[C@@H]2COC1=O
2.7%	COc1cc(/C=N/NC(=O)c2ccc(O)cc2)ccc1OCC(=O)Nc1cccc([N+](=O)[O-])c1
0.8%	COC(=O)c1cccc(-n2c(C)cc(C=O)c2C)c1
4.5%	CCOC(=O)c1cc(NC(=O)c2ccc(F)cc2)c(=O)n2c1oc1ccccc12
-18.1%	O=C(NCCCn1ccnc1)c1ccc(OCC(F)(F)F)cc1
6.4%	CCn1c(C(=O)NCCCN2CCc3ccccc3C2)cc2sccc21
-7.3%	O=C(NC1CC1)c1ccc2c(c1)N(Cc1ccc(Cl)cc1)CCS2
-6.5%	COc1ccccc1CNC(=O)c1cccc(S(=O)(=O)N2CCN(C)CC2)c1
1.1%	CCc1nc2ccccc2n1CC(C)C(=O)O (stereo not given)
11.9%	Cc1ccc(CNC(=O)c2ccc(-n3cnc4cccnc43)cc2)cc1
-24.5%	C=C(C)C(=O)Nc1cccc(C2=NOC3(C2)C[C@@H](C(N)=O)N(C(=O)/C=C/C=C/C)C3)c1 (stereo not given in full)
-4.7%	N#Cc1ccc(N2CCN(C(=O)c3cccc(F)c3)CC2)c(F)c1
0.6%	COc1ccc2c(c1)CCc1sc(NC(=O)c3cccc(Br)c3)nc1-2
20.9%	CCc1cc(-c2[nH]ncc2-c2ccc([N+](=O)[O-])cc2)c(O)cc1OC

# New compounds follow
VDR inhibitor	mol
15.3%	Cc1c(C(=O)N(C)CCn2ccnc2C)oc2c(F)cccc12
6.3%	COc1ccc(/C=C2\SC(=S)N(CCCC(=O)N3CCOCC3)C2=O)cc1OC
-15.8%	NC(=O)CCN1CCN(CCOC2Cc3cc(Cl)ccc3Sc3ccccc32)CC1 (stereo not given)
-6.7%	O=C(CN1C(=O)C2C3CC(C(Br)C3Br)C2C1=O)N1CCN(Cc2ccccc2)CC1 (stereo not given)
-16.6%	CCOC(=O)C1(C)C=C(Nc2ccc(NC(C)=O)cc2)C(=O)N1c1ccc(NC(C)=O)cc1 (stereo not given)
5.1%	Cc1ccc(S(=O)(=O)Cn2nnnc2C(C(C)C)N2CCN(c3nc4ccccc4s3)CC2)cc1 (stereo not given)
-0.3%	O/N=C1\CCCc2ccccc21
3.4%	Cc1cc(=O)oc(C)c1C(=O)NCc1ccco1
-0.7%	CN(C)CCN(C(=O)C1CCCCC1)c1nc2cc3c(cc2s1)OCO3
-2.8%	CCN(Cc1cc(=O)oc2cc(C)ccc12)c1ccccc1
14.1%	O=C(CN1c2ccccc2Sc2ccccc21)NNC(=O)Nc1ccc(Cl)cc1
12.0%	CCOc1ccc2nc(NCCNC(=O)CC)c(C#N)cc2c1
8.8%	O=C(CSc1ncn[nH]1)Nc1ccc(Br)cc1Br
10.6%	CCNC(=O)C1CCCN1S(=O)(=O)c1ccc(C)cc1 (stereo not given)
-4.0%	CCOP(=O)(c1ccccc1)C1(O)CCCCC1 (stereo not given)
7.0%	Cc1cc(Br)c(S(=O)(=O)NCCN2CCOCC2)cc1C
-16.9%	COc1ccc(CCNC(=O)CSc2nn(-c3ccccc3)c(=S)s2)cc1OC
-91.4%	Cc1occc1C(=O)Nc1ccc([N+](=O)[O-])cc1Br
-2.3%	C/C(=N/NC(=O)c1cccs1)c1ccc(NC(=O)COc2ccc(Cl)cc2)cc1
10.8%	Cc1cccc(N2CCN(C(=O)CCCn3c(=O)[nH]c4ccsc4c3=O)CC2C)c1 (stereo not given)
5.5%	CCN(CC)CCNC(=O)c1ccc(NC(=O)C2CCN(S(=O)(=O)c3ccc4c(c3)OCCO4)CC2)cc1
2.0%	COC(=O)c1sccc1NC(=S)OC
2.8%	C[C@@H]1CN([C@H](C)CO)C(=O)Cc2cc(NC(=O)CCC(F)(F)F)ccc2O[C@@H]1CN(C)C(=O)NC1CCCCC1
10.8%	Cc1ccccc1C(C(=O)NCc1ccccc1)N(Cc1ccco1)C(=O)c1ccccn1 (stereo not given)

# Random excerpt: five entries already listed, in no set order.
VDR inhibitor	mol
2.3%	Cc1c(C(=O)Nc2ccc(-c3nnc4n3CCCCC4)cc2)oc2c1ccc1ccccc12
6.4%	CCn1c(C(=O)NCCCN2CCc3ccccc3C2)cc2sccc21
-7.2%	CCOc1ccc(C(=O)N2CCN=C2SC)cc1OCC
4.5%	CCOC(=O)c1cc(NC(=O)c2ccc(F)cc2)c(=O)n2c1oc1ccccc12
11.9%	Cc1ccc(CNC(=O)c2ccc(-n3cnc4cccnc43)cc2)cc1

# Other results.
VDR inhibitor	mol
-4.4%	O=C(Nc1ccccc1)N1CC[C@@]2(CCCN(C(=O)c3csnn3)C2)C1
?	OCc1nn2c(c1Br)NC(c1ccccc1)CC2C(F)(F)F (stereo not given)
9.1%	CCn1c(SCC(=O)NCc2ccc(C)cc2)nnc1-c1ccncc1
7.0%	Oc1ccccc1-c1n[nH]c(-c2ccccc2O)n1
-15.2%	CCOc1ccccc1NC(=O)CSc1nc(-c2cccs2)cc(C(F)(F)F)n1
-2.3%	O=C(CN1C(=O)c2cccnc2Oc2ccc(Cl)cc21)NCCCc1ccccc1
-9.7%	Cn1c(=O)c2c(ncn2CC(=O)Nc2ccc3c(c2)OCO3)n(C)c1=O
1.7%&-12.6%	OC(CN1CCN(c2cccc(Cl)c2)CC1)C(c1ccccc1)c1ccccc1 (stereo not given)
-1.2%	CC(=O)Nc1ccc(NC(=O)Oc2ccccc2)cc1
0.4%	COc1cccc(C(=O)NCc2ccco2)c1OC
-12.2%	COc1ccccc1CN1CCCC(CNC(=O)c2cccc3ccccc23)C1 (stereo not given)
-2.5%	COc1ccc(NC(=O)C2CCCN2S(=O)(=O)c2ccc3nc(-c4ccccc4)[nH]c3c2)cc1 (stereo not given)
12.8%	COc1ccc(C)cc1S(=O)(=O)N(CC(=O)O)c1ccccc1
16.9%	CC12CCC(C(=O)NCCc3ccccc3)(OC1=O)C2(C)C (stereo not given)
4.5%	COC(=O)c1sccc1NC(=O)CSc1ccccc1NS(=O)(=O)c1ccc(Br)cc1
10.9%	COc1ccc(N(CC(=O)NC2CCCCC2)C(=O)CNC(=O)c2ccco2)c(OC)c1
-8.0%	Cc1ccc(NC(=S)NCc2ccc3c(c2)OCO3)c(C)c1
16.2%	CNC(=O)c1cccnc1Nc1cccc(C(F)(F)F)c1
-7.9%	COc1cc(/C=N/n2nnnc2N)ccc1OCC#N
-14.5%	Cc1nc2ccccc2nc(C)c1=NOCc1ccc(C#N)cc1
-10.8%	COc1ccccc1/C=N/NC(=O)c1[nH]c(C)c(C(=O)N/N=C/c2ccccc2OC)c1C
-10.2%	CC(C)N1C(=S)SC(C)(C)C1n1oc(=O)n(-c2ccc(Cl)c(Cl)c2)c1=O (stereo not given)
-5.0%	CC(O)[C@H](NC(=O)C1(c2ccccc2)CCN(C(=O)OC(C)(C)C)CC1)C(=O)O (stereo not given in full)
-6.4%	Oc1c(C=Nc2cccnc2)sc2ccccc12

# Sorted by value in VDR inhibitor (highest first): some entries from above.
smiles,VDR inhibitor
COc1ccc(C)cc1S(=O)(=O)N(CC(=O)O)c1ccccc1,12.8%
CC(O)[C@H](NC(=O)C1(c2ccccc2)CCN(C(=O)OC(C)(C)C)CC1)C(=O)O (stereo not given in full),-5.0%
Oc1c(C=Nc2cccnc2)sc2ccccc12,-6.4%
CC(C)N1C(=S)SC(C)(C)C1n1oc(=O)n(-c2ccc(Cl)c(Cl)c2)c1=O (stereo not given),-10.2%

# (next part)
VDR inhibitor	mol
-6.5%	CCO[C@H]1c2c(ccc3ccc(=O)oc23)OC(C)(C)[C@@H]1O
19.5%	COc1ccccc1CNS(=O)(=O)c1ccc2[nH]cc(C(=O)O)c(=O)c2c1
-3.0%	CCCc1ccc(-c2ccc(F)c(N)c2)nc1
25.1%	CC(C)(C)OC(=O)N1CCC(C(=O)N[C@H](Cc2ccccc2)C(=O)O)CC1
9.7%	CCN1CCc2c(C#N)c(NCc3ccccc3)nc(N(CC)CC)c2C1
-0.7%	CCOc1ccc2nc(SCC(=O)N3CCCc4ccccc43)sc2c1
13.5%	CC1CCC(C(=O)NC(C(=O)N2CCC(N3CCCCC3)CC2)C(C)C)CC1 (stereo not given)
16.5%	O=C(c1cccc2c1-c1ccccc1/C2=N/O)N1CCCCC1
1.3%	Brc1ccc2nc(-c3ccncc3)c(NC3CCCC3)n2c1
-4.0%	Cc1cc(C)nc(N2CCCC(C(=O)Nc3nc4ccc(S(C)(=O)=O)cc4s3)C2)n1 (stereo not given)
5.5%&20.4%	CC(CNC(=O)CCS(=O)(=O)c1ccc2c(c1)oc(=O)n2C)c1ccccc1 (stereo not given)
-23.1%	COC(=O)c1sc2nc(SCc3cccc(F)c3)n(N)c(=O)c2c1C
-13.4%	O=C1OC[C@H](Cc2ccc3c(c2)OCO3)/C1=C\c1ccc2c(c1)OCO2
10.8%	COCc1[nH]nc2c1C(c1ccccc1OC)C(C#N)=C(N)O2 (stereo not given)
-3.0%	COC1C=CC23c4cc5c(cc4CN(CC2O)C3C1)OCO5 (stereo not given)
-14.0%	CC(=O)Nc1ccc(S(=O)(=O)Nc2nc3ccc(C)cc3s2)cc1

# Assay outcomes (PubChem BioAssay)
